Screening data: PubChem BioAssay, National Center for Advancing Translational Sciences (NCATS)
MARV entry inh – inhibitors of Marburg virus binding or cell entry; Marburg virus pseudotyped entry inhibition, cell reporter; control for the full effect not named in the record; about a third of the inactives were read at about 46 µM; Potency, µM (highest dose often 37.8 µM), without a hit: top-dose activity change, negative = inhibition, usual class: inhibitors; actives 1.8% (n = 300,000); AID 540276; active = well fitted inhibition curve with a large enough effect; inconclusive = small, poorly fitted or top-dose-only effect, or effect the other way; inactive = flat fitted curve, though single readings scatter; tested in HEK293 cells; about a fifth of its hits are not listed in these tables; also: % is scaled to controls: 0 for no effect and ±100 for the full control effect; luciferase read-out
2A StopGo – FMDV 2A StopGo reporter, luciferase signal; Potency, µM (titrated, usually from 57.9 µM), without a hit: top-dose signal change, negative = less light; human cells with a luciferase reporter of 2A StopGo recoding; control for the full effect not named in the record; AID 1159524; actives 1.2% (n = 410,000); active = well fitted falling curve with a large enough effect; inconclusive = small, poorly fitted or top-dose-only effect; inactive = no such curve, though single readings can be large or run the other way; tested in HEK293T cells; also: % is scaled to controls: 0 for no effect and ±100 for the full control effect; nearly all actives have a fitted effect of over 45% in size; luciferase light after 4 h
RE007 growth inh – less growth of the S. pombe RE007 Vpr strain. Potency, µM (doses to about 92.2 µM), for the others: at the highest dose activity change, negative = less growth. S. pombe RE007 Vpr strain, BacTiter-Glo ATP luminescence, 24 h; control for the full effect not named in the record. actives 0.21% (n = 360,000); active = well fitted falling curve with a large enough effect; inconclusive = small, poorly fitted or top-dose-only effect; inactive = no such curve, though single readings can be large or run the other way;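 also: % is scaled to controls: 0 for no effect and ±100 for the full control effect; nearly all actives have a fitted effect of over 50% in size; the assay follows cell death caused by Vpr and the record does not say whether a fall means rescue or toxicity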
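Fission yeast RE007 carrying one integrated HIV-1 vpr copy, seeded at OD 0.01 in PMG+AL medium with 23 nL pinned compound. Grown 24 h at 30 degrees; viability read by BacTiter-Glo luminescence after 5 min.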
Cruzain inh noDet – cruzain (T. cruzi) inhibition without detergent. P25779. purified cruzain, Z-FR-AMC fluorescence, no detergent. Potency, µM, for inactives: max response, negative = inhibition, most hits filed as inhibitors. actives 2.3% (n = 200,000); active = well fitted curve in the direction sought with a large enough effect; inconclusive = small, poorly fitted or top-dose-only effect, or another doubt; inactive = no such curve, though single readings can be large; an effect the other way counts as inactive or inconclusive;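 also: plate controls were enzyme without inhibitor for no effect and buffer without enzyme for full effect; nearly all actives have a fitted effect of over 40% in size; top concentration of the series not given in the record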
Target sequence (P25779 123-467 limits assumed): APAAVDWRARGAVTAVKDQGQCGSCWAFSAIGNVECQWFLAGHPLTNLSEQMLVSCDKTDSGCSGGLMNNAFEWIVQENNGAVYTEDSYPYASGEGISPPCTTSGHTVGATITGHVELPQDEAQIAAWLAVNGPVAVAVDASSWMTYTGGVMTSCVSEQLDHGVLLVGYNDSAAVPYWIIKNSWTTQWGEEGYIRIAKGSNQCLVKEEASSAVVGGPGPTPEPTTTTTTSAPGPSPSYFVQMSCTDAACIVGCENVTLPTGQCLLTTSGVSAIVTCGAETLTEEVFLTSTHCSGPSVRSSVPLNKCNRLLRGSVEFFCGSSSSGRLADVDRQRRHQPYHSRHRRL
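Purified cruzain at 1.5 nM, pre-incubated 15 min with compound at room temperature in 100 mM sodium acetate pH 5.5, 5 mM DTT, 0.00005% Triton X-100. Reaction started with 2 uM Z-FR-AMC; AMC fluorescence increase over 60 s gives rate.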
Cruzain Triton – cruzain (T. cruzi) inhibition with detergent. P25779. purified cruzain, Z-FR-AMC fluorescence, 0.01% Triton. Potency, µM, for the others: max response, negative = inhibition, hits mostly inhibitors. actives 0.43% (n = 200,000). AID 1478; active = well fitted curve in the direction sought with a large enough effect; inconclusive = small, poorly fitted or top-dose-only effect, or another doubt; inactive = no such curve, though single readings can be large; an effect the other way counts as inactive or inconclusive;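 also: plate controls were neutral wells for no effect and buffer without enzyme for full effect; nearly all actives have a fitted effect of over 40% in size; top concentration of the series not given in the record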
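Cysteine protease activity tested under reducing, mildly acidic conditions (100 mM sodium acetate pH 5.5, 5 mM DTT) plus 0.01% Triton X-100. Cruzain 1.5 nM; substrate Z-FR-AMC 2 uM; 15 min compound preincubation at room temperature.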
LASV entry inh – inhibitors of Lassa virus binding or cell entry | Lassa virus pseudotype entry inhibition, cell reporter; control for the full effect not named in the record | Potency, µM (highest dose often 37.9 µM), without a hit: at the highest dose activity change, negative = inhibition, usual class: inhibitors | actives 1.2% (n = 300,000) | AID 540256; active means well fitted inhibition curve with a large enough effect; inconclusive means small, poorly fitted or top-dose-only effect, or effect the other way; inactive means flat fitted curve, though single readings scatter; tested in HEK293 cells; also: % is scaled to controls: 0 for no effect and ±100 for the full control effect; nearly all actives have a fitted effect of over 50% in size; luciferase read-out
SARS PLP yeast – inhibitors of SARS-CoV papain-like protease in yeast. Potency, µM (doses to about 32.9 µM), inactives show at the highest dose activity, positive = growth rescue. AID 485353. actives 0.19% (n = 330,000). S. cerevisiae expressing SARS-CoV PLpro, growth rescue; control for the full effect not named in the record; also: 0% is about no effect; nearly all actives have a fitted effect of over 55% in size; growth read by luminescence after 48 h
NS1 function inh – inhibitors of influenza NS1 protein function | Potency, µM (titrated, usually from 46.1 µM), without a hit: at the highest dose activity, positive = more growth | actives 0.4% (n = 270,000) | S. cerevisiae slowed by influenza A NS1, growth recovery by OD600 | AID 2326; also: actives are rising curves; nearly all actives have a fitted effect of over 50% in size
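Recovery from NS1-induced slow growth read by OD600 in budding yeast switched to galactose assay medium (pH 6.0, -URA) at 1:100 dilution. Compound 23 nl per well; the matching strain lacking NS1 serves as control.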
* hit, by the source's call; ? = inconclusive; . = no result given; [ ] = another dose, or the depositor's remark. Unless noted, calls follow the shape of the dose curve; as a rule, active means well fitted rising curve with a large enough effect; inconclusive means small, poorly fitted or top-dose-only effect; inactive means no such curve, though single readings can be large or run the other way. Potency is read from the fitted curve at half-maximal effect.

SMILES | MARV entry inh | 2A StopGo | RE007 growth inh | Cruzain inh noDet | Cruzain Triton | LASV entry inh | SARS PLP yeast | NS1 function inh
CCCCn1c(O)c(/C=N/N2CCOCC2)c(=O)[nH]c1=S | . | -9.6% | 5.2% | . | . | . | -0.2% | 5.0%
O=C(O)CCCN1C(=O)c2ccc(C(=O)c3cccc([N+](=O)[O-])c3)cc2C1=O | 4.3%[46.1 µM] | -16.5% | -13.4% | . | . | 16.5%[46.1 µM] | 1.6% | -0.1%
Clc1ccc(-c2nnc3sc(Cc4cccs4)nn23)cc1 | 15.6% | 23.3% | 21.1% | -8.0% | -14.4% | -17.1% | -5.9% | -15.7%
COc1ccc(/C=N/NC(=O)c2cccc([N+](=O)[O-])c2)cc1OC(=O)c1ccc(C)cc1 | 5.1% | 17.2% | 9.8% | -20.1% | 7.6% | 1.6% | 3.6% | -6.5%
Cc1ccc(CN2CCN(Cc3nc4ccccc4nc3C)CC2CCO)cc1 (stereo unspecified) | . | -21.3% | -11.8% | . | . | . | 1.1% | -0.2%
NC(N)=N/N=C/c1ccc(OS(=O)(=O)c2ccccc2)cc1 | . | -24.4% | 7.0% | . | . | . | 2.8% | 4.5%
O=[N+]([O-])c1nn(-c2ccc3c(c2)OCCO3)n(O)c1=NC1CCCCC1 | 16.1% | -5.8% | -11.6% | -1.6% | -0.7% | 4.8% | 3.0% | -51.7%
Cc1ccccc1OCC(=O)Nc1ccc2oc(-c3ccc(F)cc3)nc2c1 | . | -29.2% | . | -1.1% | 8.7% | 25.5%[46.1 µM] | . | .
C=CCn1c(COc2ccccc2)nnc1SCC(=O)C(C)(C)C | -0.6% | 0.3% | 3.0% | 9.1% | 4.5% | -17.5% | 0.0% | -3.0%
CCCCCC(=O)Nc1ccc2oc(-c3cncc(Br)c3)nc2c1 | 0.4% | 78.2%[activator] | 2.6% | -8.0% | 6.6% | 49.4%[14.3 µM] | 1.5% | -35.4%
CCc1ccc2[nH]c(=O)c(CN(CCN(C)C)C(=S)NCc3ccco3)cc2c1 | ? | -14.9% | -7.6% | . | . | -5.2% | -0.4% | -2.0%
COCC1CCN(C(=O)CCc2nnc(C3(c4ccc(Cl)cc4)CCC3)o2)CC1 | 3.7% | 19.0% | -5.7% | . | . | 8.0% | 2.5% | -7.5%
O=C(NCc1ccco1)C1Cc2ccccc2CN1C(=O)c1ccco1 (stereo unspecified) | -2.5%[46.1 µM] | 10.8% | -10.4% | . | . | 4.5% | 2.8% | 15.9%
COC(=O)c1c(NC(=O)COC(=O)CCNS(=O)(=O)c2ccc(NC(C)=O)cc2)sc(C)c1C | 1.7% | -5.4% | ? | . | . | 5.1% | . | .
O=C(N1CCCC1)N1CCN(S(=O)(=O)c2ccccc2)CC1 | 3.1%[46.1 µM] | -10.7% | 2.9% | . | . | 11.7% | 0.0% | -2.9%
COc1ccc(C)cc1NC(=O)CN(c1ccccc1)S(=O)(=O)N(C)C | ? | -20.3% | . | -1.8% | -5.7% | -8.5%[46.1 µM] | . | .
CC1CCc2[nH]c3ccc(C(=O)O)cc3c2C1 (stereo unspecified) | . | 4.2% | -3.8% | . | . | . | -4.2% | -103.7%
COc1ccc(C2CC(=O)c3sc(N)nc3C2)cc1 (stereo unspecified) | -2.1%[46.1 µM] | -1.4% | -23.9% | 0.9% | 3.9% | ? | 19.3% | 3.6%
O=S(=O)(c1ccc(Cl)cc1)N1CCC(O)(c2cccnc2)CC1 | 1.4% | . | -16.1% | -0.3% | 4.8% | 7.0% | 1.3% | -12.5%
COCCNC(=O)C(c1ccc(F)cc1)N(CC1CCCO1)C(=O)CCC(=O)Nc1ccccn1 (stereo unspecified) | 0.4% | 3.4% | 5.4% | 8.0% | 4.4% | 13.5% | -7.0% | -2.2%
O=[N+]([O-])c1ccccc1C1Nc2cccc3cccc(c23)N1 | -15.8% | -5.5% | -10.7% | ? | -3.1% | ? | -20.4% | 16.8%
O=C(CN(c1ccccc1)S(=O)(=O)c1ccccc1)N/N=C/c1ccco1 | ? | -9.7% | 20.1% | 4.1% | -5.8% | -5.5% | -21.4% | -7.8%
CCC1=NN2C(=N)/C(=C\c3cccn3-c3cccc(Cl)c3)C(=O)N=C2S1 | -7.6%[46.1 µM] | -14.4% | 3.4% | . | . | ? | -4.5% | .
O=C(Nc1cnn(C23CC4CC(CC(C4)C2)C3)c1)c1cc(-c2ccccc2)on1 | ? | . | -8.4% | ? | -7.1% | -18.5% | 3.9% | -2.8%
CCOC(=O)c1cnn(-c2ccc(F)cc2)c1N | 1.5% | 4.8% | 1.1% | . | . | 16.5% | -0.5% | 0.3%

Remaining list, next part:
SMILES | MARV entry inh | 2A StopGo | RE007 growth inh | Cruzain inh noDet | Cruzain Triton | LASV entry inh | SARS PLP yeast | NS1 function inh
COc1ccc(NC(=O)c2cccc(NC(=O)C(C)C)c2)c([N+](=O)[O-])c1 | ? | 5.7% | 7.1% | 16.6% | 0.5% | 20.2% | -0.9% | 0.1%
Cc1cccc(Cc2ncc(C(F)(F)F)cc2Cl)c1 | . | -11.5% | 11.4% | . | . | . | 8.9% | -0.6%
CCOC(=O)c1cn(CC2CC2)c2cc(F)c(F)cc2c1=O | 20.0%[46.1 µM] | -8.6% | -4.1% | . | . | -3.2% | -0.9% | 3.6%
Cc1ccc(Cl)cc1N1CCN(C2(c3ccccc3)C(=O)c3ccccc3C2=O)CC1 | -17.9%[46.1 µM] | -22.9% | . | ? | 0.4% | -3.2%[46.1 µM] | . | .
CCOCCCNS(=O)(=O)c1ccc(NC(=O)C2CC(=O)N(c3ccc(C)cc3)C2)cc1 (stereo unspecified) | -23.4%[46.1 µM] | 1.3% | 23.6% | . | . | -7.9% | 0.3% | 0.7%
COC(=O)CC1(C(=O)OC)Oc2ccc(Br)cc2C(=O)N1c1cccc(Cl)c1Cl (stereo unspecified) | ? | -15.6% | 1.7% | . | . | ? | -4.2% | 4.8%
CCCn1c(=N)c(S(=O)(=O)c2ccccc2)cc2c(=O)n3ccccc3nc21 | ? | 14.9% | -9.0% | . | . | -10.8% | -1.3% | 0.2%
CC(C)(C)Cc1nnc(NC(=O)c2ccco2)s1 | . | 32.6%[activator] | -19.4% | . | . | . | -3.0% | -11.1%
CCOC(=O)c1c(CN2CCCCC2)n(C)c2ccc(OC)c(S(=O)(=O)c3ccccc3)c12 | ? | 15.0% | 2.4% | -4.1% | 0.5% | -10.2% | 5.4% | -14.8%
CN(C(=O)C1CCOC1)c1nnc(-c2ccccn2)s1 (stereo unspecified) | 9.5% | 42.9%[activator] | -14.7% | 0.9% | 4.0% | ? | -4.8% | 3.2%
Cc1cccn2c(=O)cc(CSc3nnc(NC(=O)C(C)C)s3)nc12 | . | 0.5% | . | 0.7% | 3.1% | 0.3%[46.1 µM] | . | .
Cc1nn(-c2ccccc2)c(N)c1N=Nc1ccc(Cl)cc1 | ? | 34.2%[activator] | ? | 4.9% | -12.9% | ? | -101.8% | -8.7%
N/C(=N\OC(=O)/C=C/c1ccccc1Cl)c1cccnc1 | ? | 55.4%[activator] | 1.1% | . | . | -14.4% | -1.4% | 1.1%
Cc1cccc(C(=O)Nc2ccc(N3CCC(N4CCCCC4)CC3)c(C(=O)O)c2)c1 | . | 35.2%[activator] | . | -6.8% | 0.6% | 2.1%[46.1 µM] | . | .
Cc1ccc(NC(=O)c2ccc3c(O)c(S(=O)(=O)c4ccc(Cl)cc4)c(=O)[nH]c3c2)cc1 | . | -23.6% | . | ? | 2.7% | -3.2%[46.1 µM] | . | .
C#CCSc1nc(N)c2c(n1)OC(N)=C(C#N)C2c1cccnc1 (stereo unspecified) | -18.6%[46.1 µM] | -6.8% | 13.3% | . | . | 2.1%[46.1 µM] | -0.3% | .
CCCN1CCN(c2nc3c([nH]2)c(=N)ncn3CC(O)CO)CC1 (stereo unspecified) | -1.0%[46.1 µM] | 3.5% | -7.2% | -4.0% | 4.1% | 7.5% | -3.7% | 1.5%
FC(F)(F)c1ccccc1CN1CCC(Cc2ccccc2)CC1 | -3.7%[46.1 µM] | -16.1% | 13.4% | . | . | -4.9%[46.1 µM] | -7.5% | -2.1%
CCCCNC(=O)CC1N=C2c3ccccc3N=C(SCC(=O)NCc3ccccc3Cl)N2C1=O (stereo unspecified) | . | 13.0% | . | -11.7% | -8.3% | -17.2%[46.1 µM] | . | .
COCCCNC(=O)c1ccc2c(c1)N(Cc1ccccc1)C(=O)c1ccccc1S2 | . | -11.6% | . | ? | -2.0% | -5.3%[46.1 µM] | . | .
CCOc1ccc(Cl)cc1S(=O)(=O)N1CCN(c2ccc(C)c(C)c2)CC1 | ? | 0.0% | 12.8% | 1.7% | -2.6% | -25.7% | -8.9% | 4.4%
C=Cn1c(N2CCOCC2)nc2c1c(=O)[nH]c(=O)n2C | 21.0% | 0.0% | -4.2% | -15.6% | 1.4% | 0.5% | 0.4% | 12.0%
COc1cccc(NC(=O)C(CCSC)NC(=O)C2CCC(C)CC2)c1 (stereo unspecified) | 3.0%[46.1 µM] | 10.9% | . | 0.3% | -3.1% | -3.3%[46.1 µM] | . | .
Cn1cnc(S(=O)(=O)N2CCCC(C(=O)Nc3ccc(F)cc3Cl)C2)c1 (stereo unspecified) | . | -0.5% | . | -4.5% | 0.8% | 1.8%[46.1 µM] | . | .
Cc1cccc(NC(=O)CCS(=O)(=O)c2cc(Br)cc3c2N(C(=O)C2CC2)CC3)c1C | ? | -13.4% | . | 8.4% | 0.7% | -0.8%[46.1 µM] | . | .
O=C(O)C1NCCc2ccccc21 (stereo unspecified) | 0.6% | . | -16.7% | 10.5% | 4.0% | 7.9% | 6.8% | -6.2%
O=C(Oc1ccc2ccc(=O)oc2c1)c1ccco1 | 7.8%[46.1 µM] | 10.6% | -23.4% | . | . | 1.6%[46.1 µM] | 7.0% | -29.6%
Cc1cc(C)cc(C(=O)OCC(=O)NCc2cccs2)c1 | -6.2% | 0.1% | 7.1% | 8.7% | -3.7% | -3.2% | -9.5% | -18.7%
